Compound activity as filed in PubChem BioAssay.
CSC inhib = blocks cancer stem cells; cancer stem cell-like cells viability, luminescence; inhibition, % at 7.5 µM; hit rate 1.1% among 300,000; AID 2717;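 active means mean at 75% or more and at least half the replicates too; inconclusive means mean and replicates disagree; tested in HMLE shEcad cells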;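 further: 0% = median of negative and 100% = median of positive control wells; the first replicate is given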
MT1-MMP act inh = MT1-MMP (human) activation inhibition | P50281 | HT1080 RFP-PRO-GFP cells, GFP/RFP ratio fluorescence, overnight; percent of plate control window, DMSO zero | GFP/RFP ratio change, % at 20 µM | hit rate 0.061% among 360,000 | AID 651647;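 active means GFP/RFP ratio change of at least 30% with cell ATP level not reduced by more than half and red fluorescence within 50% of control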; further: strong numbers were not always called active
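Assay system: HT1080 RFP-PRO-GFP cells | Dosing: 20 µM single dose, 1% DMSO | Incubation: Cells overnight before dosing, compound overnight, 37 °C, 5% CO2 | Evaluation: GFP/RFP fluorescence ratio | Control set: DMSO-only wells and HT1080 RFP-L50D-GFP cell wells as references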
eIF4H inh = inhibitors of RNA binding by human eIF4H. hit rate 0.94% among 290,000. eIF4H fluorescence polarization binding assay. inhibition, % at 35 µM. AID 2012;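 active means 50% or more with normal probe brightness, or confirmed in later tests; inconclusive means above 50% with abnormal brightness, or retests that disagree; inactive means below 50% or failed in later tests; about a fifth of its hits are not listed in these tables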;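 further: calls also rest on retests at 20 µM and on dose response follow-up; 0% = protein and probe with vehicle and 100% = probe without protein; strong numbers were not always called active; many hits fall short of the cut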
HIV Env fusion = HIV envelope-mediated fusion inhibition; HeLa-JRFL Env/CEM21 cell fusion, luciferase; inhibition, % at 12.3 µM; hit rate 1.1% among 360,000;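 active means mean replicate inhibition score of at least 50 and every replicate individually at or above 50; inconclusive means only one of the two criteria met; inactive means mean below 50 and not all replicates reaching 50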;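 further: 0% = plate neutral controls and 100% = maraviroc near 300 nM; one replicate is shown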
Rce1 inh = blocks yeast Ras-converting enzyme. calls only. Q03530. yeast membranes, quenched prenylated peptide cleavage fluorescence. hit rate 0.27% among 290,000. AID 2563;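 active means fall in fluorescence gain of 50% or more versus controls, with final raw signal at or below 3038400; inconclusive means same 50% fall but final raw signal above 3038400; inactive means fall in fluorescence gain under 50%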;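 further: plate controls were neutral control wells for no effect and wells lacking membranes for full effect; tested at 10 µM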
Target sequence (Q03530 whole entry, looked up): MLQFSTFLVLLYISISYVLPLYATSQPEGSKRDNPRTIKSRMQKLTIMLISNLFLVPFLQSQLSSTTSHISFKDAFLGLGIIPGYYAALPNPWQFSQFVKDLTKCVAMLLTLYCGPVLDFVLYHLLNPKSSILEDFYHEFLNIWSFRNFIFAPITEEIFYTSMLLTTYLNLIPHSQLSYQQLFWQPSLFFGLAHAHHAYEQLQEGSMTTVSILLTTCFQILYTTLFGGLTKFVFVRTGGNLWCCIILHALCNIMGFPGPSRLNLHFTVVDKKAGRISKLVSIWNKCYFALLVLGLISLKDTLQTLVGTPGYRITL
Yeast UUG start = alters start codon recognition fidelity in yeast; S. cerevisiae UUG-firefly luciferase reporter, luminescence/redox ratio; activity score, % at 18.7 µM; hit rate 0.13% among 350,000;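 active means replicate mean at a twofold rise or more, about +100% in these data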;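 further: firefly luciferase made from a UUG start codon reports start codon fidelity; reporter light over untreated wells divided by growth signal over untreated wells; some hits fall short of that in this replicate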
PABP FP inh = blocks human PABP binding to poly(A) RNA; P11940; hit rate 1% among 290,000; fluorescence polarization; inhibition, % at 35 µM;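 active means 50% or more with normal probe brightness, or confirmed in later tests; inconclusive means above 50% with abnormal brightness, or retests that disagree; inactive means below 50% or failed in later tests; about a fifth of its hits are not listed in these tables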;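 further: calls also rest on retests at 20 µM and on dose response follow-up; controls were probe without protein and protein plus probe with vehicle; some compounds called inactive have numbers as strong as hits; many hits fall short of the cut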
Target sequence (P11940 whole entry, looked up): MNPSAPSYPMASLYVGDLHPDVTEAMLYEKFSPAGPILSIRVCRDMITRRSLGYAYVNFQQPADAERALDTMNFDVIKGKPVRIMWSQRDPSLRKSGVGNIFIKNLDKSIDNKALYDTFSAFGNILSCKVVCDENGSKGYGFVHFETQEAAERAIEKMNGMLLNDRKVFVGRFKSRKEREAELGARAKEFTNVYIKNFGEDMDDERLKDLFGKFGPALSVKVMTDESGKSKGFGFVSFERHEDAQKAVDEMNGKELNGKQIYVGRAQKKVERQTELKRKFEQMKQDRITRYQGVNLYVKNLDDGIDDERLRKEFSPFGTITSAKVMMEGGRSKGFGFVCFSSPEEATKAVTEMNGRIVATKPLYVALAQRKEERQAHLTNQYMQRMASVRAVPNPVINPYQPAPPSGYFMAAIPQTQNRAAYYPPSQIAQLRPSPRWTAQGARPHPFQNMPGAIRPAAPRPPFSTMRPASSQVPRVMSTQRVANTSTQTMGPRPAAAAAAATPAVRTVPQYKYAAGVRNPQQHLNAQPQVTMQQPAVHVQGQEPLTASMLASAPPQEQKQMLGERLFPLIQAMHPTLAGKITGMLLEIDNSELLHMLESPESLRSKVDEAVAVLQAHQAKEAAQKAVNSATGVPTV
MT1-MMP act inh RFP = further read-out of MT1-MMP act inh, marked with its call; RFP signal change, %; measured here: RFP expression control read;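 0 = vehicle wells; hits needed this value within 50% of zero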
The depositor's hits bear a star; i = inactive; ? = inconclusive; / = not tested or not shown.

SMILES	CSC inhib	MT1-MMP act inh	MT1-MMP act inh RFP	eIF4H inh	HIV Env fusion	Rce1 inh	Yeast UUG start	PABP FP inh
Cc1cc(=O)oc(C)c1C(=O)OCC(=O)c1ccc2ccccc2c1	-17.2	9.1	6.8	7.9	-81.2	i	-4.0	18.7
COc1cccc(CC(NC(C)=O)C(=O)NC2CCN(c3nc(C)cc(C)c3C#N)CC2)c1 (centres undefined)	/	-0.1	4.6	-1.3	0.4	i	3.7	4.7
COc1ccc2c(c1)c(C(=O)CN1CCOCC1)c(C)n2C	-4.5	-2.2	-1.5	9.1	-44.3	i	-19.2	-3.3
CC(=O)N1C(=O)C2(C(C#N)=C(N)Oc3cc(C)oc(=O)c32)c2ccccc21 (centres undefined)	-9.0	-2.1	4.8	5.8	-95.8	i	-0.8	-6.9
CC(C)NC(=O)c1ccc(-c2cc(C(F)(F)F)ccc2Cl)o1	3.4	16.2	9.8	8.9	-8.0	i	-13.7	-10.6
Cc1ccc(Cn2nnc(C(=O)Nc3cc(C)ccc3C)c2N)cc1	-7.8	-0.8	-6.6	-5.1	-14.2	i	-6.6	17.5
Cc1ccc(S(=O)(=O)N(OCc2ccccc2)C(C)C(=O)O)cc1 (centres undefined)	3.3	0.5	1.6	/	-6.1	i	-28.7	/
CN(C(=O)CSc1ncnc2ccccc12)C1CCCCC1	/	-0.5	-1.9	/	-32.1	/	-12.2	/
O=C(Nc1ccc2c(c1)OCO2)c1ccc(Br)o1	12.2	3.2	0.8	-5.7	/	/	-11.8	5.2
Cc1ccc(-c2nc(C#N)c(NCC3CCCO3)o2)cc1 (centres undefined)	4.0	2.7	-2.9	-5.8	-26.4	i	/	-2.0
COc1ccc(N(C)C(=O)Nc2ccc3c(c2)nnn3C)cc1	-3.6	8.8	3.9	-2.6	/	i	-8.9	-0.6
CCOc1ccc(S(=O)(=O)NCCCn2ccnc2)cc1NC(C)=O	-8.7	4.8	5.6	-5.4	5.3	i	-16.6	1.8
O=C(COC(=O)c1ccc(S(=O)(=O)NCc2ccco2)cc1)Nc1ccccc1	/	-0.9	5.5	/	-14.6	/	-16.1	/
Cc1nc(=O)c(-c2ccccc2)c(C)n1-c1cccc(C(=O)O)c1	-10.4	1.4	3.9	-9.4	/	i	21.0	11.3
CCN(CC)C(=O)OCc1c(-c2cccc(OC)c2)ncc2ccccc12	2.0	1.0	-1.3	/	-43.4	/	-9.7	/
C[N+]1(C)CC2=Cc3ccccc3CC2C1 (centres undefined)	-11.6	-5.3	0.7	2.1	8.8	i	/	-0.4
CN1CCN(c2ccc(S(=O)(=O)Nc3ccccc3)cc2[N+](=O)[O-])CC1	49.9	6.4	-4.5	-3.6	2.6	i	/	2.7
CCN(CC)C(=O)C(C)N(C#N)c1nc(SC)nc(N(C)C)n1 (centres undefined)	/	1.0	-0.7	-4.4	14.0	i	-6.8	-5.0
CCC(CC)c1nnc(NC(=O)c2ccc3ccccc3n2)s1	17.3	3.4	0.8	3.4	/	i	-38.3	-9.3
COc1ccccc1/C=C/C(=O)N1CCN(S(=O)(=O)c2cc(C)ccc2C)CC1	3.9	-3.8	-6.0	/	7.2	/	6.0	/
COC(=O)c1cc(CSC(=N)N)ccc1OCCC(C)C	50.2	2.3	0.7	-16.7	3.8	i	-6.6	7.1
O=C(C(=O)N1CCc2ccccc2C1)c1cn(CC(=O)N2CCCCC2)c2ccccc12	/	-3.5	0.0	-7.7	-11.2	i	-4.0	-19.8
COc1cc(NC(=O)CN(C)Cc2ccc(OC(F)F)cc2)c(C)cc1[N+](=O)[O-]	-14.2	-1.2	-7.4	0.3	/	i	/	-9.0
CC(=O)N1CCN(S(=O)(=O)c2ccc(S(=O)(=O)NCC(C)C)cc2)CC1	/	-14.9	-17.6	-5.1	/	i	-15.8	-1.0
COc1cc2nc(C3CCC3)n(N)c(=O)c2cc1OC	1.0	2.2	4.0	-3.8	-22.6	i	-6.6	16.0
CCOc1nc2cnccc2n(CC(=O)Nc2c(F)c(F)cc(F)c2F)c1=O	-0.3	0.2	-0.1	-3.6	7.6	i	6.3	-9.0
CC(=O)N[C@H]1[C@H](OC2CCCCC2)O[C@H](COC(C)=O)[C@@H](OC(C)=O)[C@@H]1OC(C)=O	4.0	-3.4	-0.3	-4.8	11.1	i	-1.3	-5.9
CC(=O)NC(c1cc(F)c2cccnc2c1O)C1CC1 (centres undefined)	1.2	3.9	1.0	/	18.6	/	-7.2	/
COc1ccccc1OCCCn1c(=O)oc2ccc(C)cc21	-0.4	8.8	-4.8	-1.7	-52.7	i	12.8	-5.5
CC1CCCN(C(=O)COC(=O)c2cc(-c3cccs3)nn2-c2ccccc2)C1 (centres undefined)	8.8	-0.7	-2.0	/	-4.1	i	-10.8	/
COc1cc(NC(=O)CSc2nnc3c(C)cc4cc(C)cc(C)c4n23)c(C(=O)O)cc1OC	/	-0.1	-0.2	-4.1	21.1	i	/	6.2
O=C(CCNC(=O)c1ccccc1)OCC(=O)c1ccccc1	-12.3	0.8	-0.7	-5.3	-13.7	i	2.7	-3.3
CCOC(=O)CN1C(=O)/C(=C/c2ccccc2Br)Oc2ccccc21	-5.4	-4.0	-2.6	-14.9	30.5	i	-16.6	5.2
Cn1c(=O)[nH]c(Nc2ccc(F)cc2)c([N+](=O)[O-])c1=O	4.2	2.3	8.4	-7.4	/	i	/	1.2
COc1cc(C(=O)OCC(=O)NC(C)CCc2ccccc2)cc(OC)c1OC (centres undefined)	-10.7	3.1	-1.3	5.2	-6.1	i	0.8	-1.7
COc1cccc(OC)c1OCCCOc1ccc([N+](=O)[O-])cc1Cl	8.2	-4.2	-9.4	-3.6	14.5	i	1.9	-0.3
CC(=O)Nc1cc(-c2cccc(N)c2)cn2c(-c3ccccc3)cnc12	/	-1.5	-1.1	/	18.1	/	-5.4	/
COc1cc(S(=O)(=O)Nc2cccc3cn[nH]c23)c(OC)cc1Cl	/	-3.4	3.1	-16.3	-7.2	i	-15.6	7.2
O=C(O)C1C2CCC(C2)C1C(=O)Nc1cc(F)ccc1F (centres undefined)	/	-2.5	-0.9	10.9	-28.4	i	-11.3	-7.3
CCN(CC)CC(=O)Nc1ccc(/C(C)=N/NC2=NCCN2)cc1	-6.2	5.5	2.0	-0.4	9.7	i	/	-4.1
COc1ccc(NC(=O)CSc2nnc(Cc3cccn3C)n2-c2ccc(F)cc2)cc1OC	-23.3	3.6	0.3	1.8	-8.8	i	-21.8	0.7
O=C(c1ccc2c(=O)n3c(nc2c1)CCCCC3)N1CCN(c2ccc([N+](=O)[O-])cc2)CC1	6.1	-2.6	-11.2	-5.4	-0.7	i	1.8	0.9
COc1ccc(-n2c(=O)cc(N3CCOCC3)[nH]c2=O)cc1	-4.7	-4.6	-1.9	-3.7	/	i	-13.3	14.5
O=C(O)/C=C\C(=O)Nc1ccccc1N1CCN(c2ccccc2)CC1	11.4	2.1	-1.2	-7.4	1.3	i	-5.5	-8.2
CCc1ccc(/C=N/n2c(C)cc(C)c(C#N)c2=O)cc1	-1.2	-4.3	3.6	-9.4	-6.9	i	-32.9	10.8
Cc1cc(C)cc(OCC(=O)OCC(=O)NC2CCCCCCC2)c1	-11.8	1.9	2.3	/	/	i	11.3	/
COCc1ccc(CN2CCCC(C(=O)Nc3ccc(-c4cccc(OC)c4)cc3)C2)o1 (centres undefined)	5.0	2.3	-8.2	-0.2	8.6	i	-4.2	-6.5
O=C(O)CSC(=S)N1CCCCC1	-26.9	-1.8	0.9	2.4	7.1	i	/	-0.1
O=C(CC1C(=O)NCCN1Cc1c(F)cccc1Cl)NCCCN1CCCC1=O (centres undefined)	-13.3	0.1	6.3	5.9	-2.0	i	16.1	3.1
CC1=C(C(=O)OC2CCCCCCC2)C(c2cc3c(cc2Br)OCO3)CC(=O)N1 (centres undefined)	117.7*	-13.6	-12.5	-7.1	-87.6	i	-16.2	-6.6
COc1ccc(/C(C)=N/OCC(=O)Nc2nc3ccccc3s2)cc1OC	-2.1	-3.1	-0.6	-6.0	/	i	2.4	9.0
COC(=O)CCCCCCCC(=O)Nc1nnc(C(F)(F)F)s1	-6.4	0.8	2.6	-4.0	2.8	/	/	-7.0
CCOc1ccc(N2C(=O)NC(Cc3c[nH]c4ccccc34)C2=O)cc1 (centres undefined)	0.8	0.9	0.3	7.4	/	i	-5.8	5.0
CSc1nc2ccc(NC(=O)c3ccc(F)c(F)c3)cc2s1	-5.1	7.5	4.0	-3.8	-58.7	i	/	8.5
CCc1ccc2nc(SCC(=O)Nc3nnc(C)s3)c(C)cc2c1	-8.0	-6.9	-0.5	1.7	10.7	i	/	9.8
COc1ccc(OCc2cc(C(=O)N3CCC(c4ccccc4)CC3)no2)c(Cl)c1	12.2	0.0	-2.2	-0.2	-20.9	i	-2.9	-0.6
CCCc1nn2c(=O)c(C(c3cccc(Cl)c3)c3c(O)nc4sc(CCC)nn4c3=O)c(O)nc2s1	0.8	-0.8	-4.6	6.8	/	i	-14.8	31.4
CC(C)c1ccccc1NC(=S)NC(=O)C1CCCCC1	14.1	-7.4	-5.6	/	17.3	/	-17.7	/
Cc1ccc2nc(CCc3nc4ccc(C)cc4o3)oc2c1	-7.2	0.4	2.5	8.4	-12.2	i	-2.9	-2.3
O=C(NC1C2CC3CC(C2)CC1C3)c1ccc(N2CCNCC2)c([N+](=O)[O-])c1 (centres undefined)	52.3	-0.8	0.9	-9.3	27.8	i	-3.9	-20.8

For convenience, some entries already given.
SMILES	CSC inhib	MT1-MMP act inh	MT1-MMP act inh RFP	eIF4H inh	HIV Env fusion	Rce1 inh	Yeast UUG start	PABP FP inh
COc1ccc(/C(C)=N/OCC(=O)Nc2nc3ccccc3s2)cc1OC	-2.1	-3.1	-0.6	-6.0	/	i	2.4	9.0
COC(=O)CCCCCCCC(=O)Nc1nnc(C(F)(F)F)s1	-6.4	0.8	2.6	-4.0	2.8	/	/	-7.0
CCOc1ccc(N2C(=O)NC(Cc3c[nH]c4ccccc34)C2=O)cc1 (centres undefined)	0.8	0.9	0.3	7.4	/	i	-5.8	5.0
CSc1nc2ccc(NC(=O)c3ccc(F)c(F)c3)cc2s1	-5.1	7.5	4.0	-3.8	-58.7	i	/	8.5

(more compounds)
SMILES	CSC inhib	MT1-MMP act inh	MT1-MMP act inh RFP	eIF4H inh	HIV Env fusion	Rce1 inh	Yeast UUG start	PABP FP inh
Cc1ccc(C(=O)CNc2ccc(C)c(Cl)c2)cc1	8.7	/	/	-7.6	8.5	i	/	5.8
Cc1ccc(C(=O)Nc2ccccc2C(=O)O)cc1S(=O)(=O)NCc1ccccc1	5.6	0.8	0.2	-1.1	1.8	i	/	10.9
O=C(COC(=O)CN1C(=O)COc2ccccc21)NCc1ccc(F)cc1	-6.4	-1.2	1.8	/	17.9	i	/	/
O=C1N=C(N2CCN(Cc3ccccc3)CC2)S/C1=C/c1cccs1	2.8	-0.4	-6.0	-0.7	-3.8	i	7.9	1.9
Cc1cc(N)n(-c2ccc(S(=O)(=O)c3ccc(C(C)C)cc3)cc2)n1	-11.7	2.2	-7.2	5.4	11.8	i	/	1.0
Cc1cc(-c2nc(C)c(-c3nnc(SCC(=O)Nc4ccccc4)n3C)s2)no1	-5.7	1.5	2.9	-10.5	-2.6	?	/	-0.9
COCCCN(Cc1cccs1)S(=O)(=O)c1csc(C(N)=O)c1	-6.8	4.1	3.1	-11.1	-5.1	i	-9.4	2.7
CN(C)CCNC(=O)C(=O)NCC1CCCN1S(=O)(=O)c1cccs1 (centres undefined)	-15.6	-5.3	3.8	/	8.6	i	-6.9	/
